ClpP mod: qHTS Assay for Activators of ClpP. Potency, µM (top dose mostly 57.5 µM), without a hit: at the top dose activity change, negative = active. hit rate 1.9% among 340,000. purified B. subtilis ClpP, FRET peptide cleavage, 20 min; active = well fitted falling curve with a large enough effect; inconclusive = small, poorly fitted or top-dose-only effect; inactive = no such curve, though single readings can be large or run the other way; further: potency means the concentration at half of the fitted maximal effect; the source files actives as falling curves though it sought activators and does not explain the sign; nearly all actives have a fitted effect of over 65% in size; many hits overshoot -100%
Target sequence (P80244 whole entry, looked up): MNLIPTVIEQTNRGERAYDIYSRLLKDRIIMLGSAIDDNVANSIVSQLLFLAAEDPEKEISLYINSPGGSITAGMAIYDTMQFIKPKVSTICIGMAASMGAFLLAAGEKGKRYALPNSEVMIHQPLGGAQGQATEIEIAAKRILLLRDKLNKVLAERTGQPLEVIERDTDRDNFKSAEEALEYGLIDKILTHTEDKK
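FRET quenching reversal measured ClpP activation: 10 microg/mL B. subtilis ClpP at pH 8 with the FRET-FV decapeptide, read at 430 nm after 320 nm excitation. The 20-min minus 0-min signal was scaled between DMSO/no-enzyme wells and ADEP (5.8 microM final).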
TRPML1 blocker: blocks the human TRPML1 channel. TRPML1-inducible cells, Ca2+ dye fluorescence, FDSS; active compounds read low; inhibition of EC80 agonist-evoked calcium signal. AID 624415. Q9GZU1. activity change, negative = inhibition, % (test concentration not listed). hit rate 0.02% among 390,000; in the data active means activity change below about -50%; inconclusive means about -30% to -50%; inactive means above about -30%;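 further: stimulus is agonist 54-4 at its EC80 concentration; on the % scale 0 is the no-effect control and ±100 the full control effect; compound concentration not given in the record; the text of the record puts the active cut at -80%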
Target sequence (Q9GZU1 whole entry, looked up): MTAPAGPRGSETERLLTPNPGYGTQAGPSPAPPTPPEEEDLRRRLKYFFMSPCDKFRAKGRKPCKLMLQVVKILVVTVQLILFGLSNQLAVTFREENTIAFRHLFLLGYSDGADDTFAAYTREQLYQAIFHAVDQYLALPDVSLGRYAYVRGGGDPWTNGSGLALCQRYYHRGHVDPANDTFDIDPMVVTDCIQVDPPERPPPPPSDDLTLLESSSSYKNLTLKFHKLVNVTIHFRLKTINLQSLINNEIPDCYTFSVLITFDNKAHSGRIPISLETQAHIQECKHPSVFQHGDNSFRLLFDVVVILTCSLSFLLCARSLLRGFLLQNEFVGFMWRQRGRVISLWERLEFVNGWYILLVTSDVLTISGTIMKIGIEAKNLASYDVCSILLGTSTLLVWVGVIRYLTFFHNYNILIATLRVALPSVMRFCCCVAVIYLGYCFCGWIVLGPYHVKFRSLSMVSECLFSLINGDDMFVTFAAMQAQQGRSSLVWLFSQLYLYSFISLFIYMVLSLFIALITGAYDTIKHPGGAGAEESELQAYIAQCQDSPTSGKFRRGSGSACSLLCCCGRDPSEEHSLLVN
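Calcium fluorescence in TRPML1-DL cells induced overnight with Tet: a 110 s read after compound pin addition, then a 110 s antagonist read after challenge with 54-4 at 4 uM final (EC80).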
Menin-MLL FL inh: inhibitors of human menin-MLL interaction, wild-type MLL peptide | Fluorescence polarization, fluorescein-MLL peptide displacement from menin | FP activity change, % at 61.4 µM | 290,000 tested, under 10 active | AID 1766; inconclusive = falling polarisation curve, or a change in total fluorescence; inactive = total fluorescence flat and polarisation flat or rising; no compound was filed as active; the % refers to the polarisation; negative = inhibition;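 further: % of control where 0% means no effect; inhibitors lower the polarisation; unlabelled MLL peptide was the positive control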
gsp ag: agonists of gsp mutant (McCune-Albright syndrome); gsp mutant cells, cAMP HTRF, 30 min; control for the full effect not named in the record; Potency, µM (series often up to 76.9 µM), without a hit: at the highest dose activation (cAMP increase), hits mostly activators; hit rate 0.13% among 340,000; active = well fitted activation curve with a large enough effect; inconclusive = small, poorly fitted or top-dose-only effect, or another doubt; inactive = no such curve, though single readings can be large or run the other way; cell line not stated here;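 further: phosphodiesterase inhibitor Ro 20-1724 added with compounds to block cAMP breakdown; potency means the concentration at half of the fitted maximal effect; nearly all actives have a fitted effect of over 60% in size; about a fifth of the inactives were tested at one dose only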
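Cells in DMEM/10% FBS with G418 were pretreated with compounds in DMSO plus […] (300 uM stock) for 30 min at 37C. cAMP was measured by HTRF (cAMP-d2 plus anti-cAMP antibody-K) after 30 min at room temperature.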
gsp antagonist: antagonists of gsp mutant (McCune-Albright syndrome); gsp-mutant cells, cAMP HTRF, 30 min; control for the full effect not named in the record; Potency, µM (highest dose often 76.9 µM), for inactives: at the top dose activity change, negative = inhibition, usual class: inhibitors; hit rate 0.4% among 340,000; AID 624288; active = falling curve of any shape with a large fitted effect; inconclusive = falling curve, mostly with a smaller effect; inactive = flat or rising curve; cell line not stated here;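 further: intracellular cAMP measured with PDE inhibitor Ro 20-1724 present during compound exposure; potency means the concentration at half of the fitted maximal effect; on the % scale 0 is the no-effect control and ±100 the full control effect; nearly all actives have a fitted effect of over 65% in size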
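G418-selected cells were plated in DMEM/10% FBS for 16-24 h at 37C, then treated with compounds plus the PDE inhibitor […] (300 uM solution added) for 30 min at 37C. Intracellular cAMP was measured by HTRF after 30 min lysis at room temperature.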
TRPML1 ag: activates the human TRPML1 channel; hit rate 0.12% among 410,000; activation, % (concentration not given with the values); TRPML1-expressing cells, Ca2+ dye fluorescence, FDSS; host cell line not named in the record; reference of the full effect not given here; AID 624414; Q9GZU1; in the data active = activation above about 50%; inconclusive = about 30% to 50%; inactive = below about 30%; further: 0% is about no effect; the text of the record puts the active cut at 80%
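Tet-induced TRPML1-DL cells, 1,500 per well, cultured overnight, were loaded with a no-wash Ca2+ dye for 45–90 min. Calcium fluorescence was recorded on the FDSS for 110 s after compound addition, before the EC80 agonist (4 uM 54-4) was added.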
Active calls of the source: *; ? = inconclusive; . = not tested or not shown; & = joins results of further samples; [ ] = remark or other dose. Random draw from the library; 2.1% or so of the library scored in one or more.

| compound | ClpP mod | TRPML1 blocker | Menin-MLL FL inh | gsp ag | gsp antagonist | TRPML1 ag |
| --- | --- | --- | --- | --- | --- | --- |
| Cc1nc(C)c(C(=O)N(c2ccccc2F)C(C(=O)NCC2CCCO2)c2ccccc2)s1 (configuration not stated) | 0.1% | -12 | -5.6 | -3%[15.4 µM] | 2% | -1.3 |
| Cc1cc(C(F)(F)F)nc(SCC(=O)Nc2ccccc2)n1 | 4.4% | 8 | -1.4 | -17% | 3% | -0.6 |
| COC1C=CC=C(C)C(=O)NC2=CC(=O)C(N)=C(CC(C)CC(OC)C(O)C(C)C=C(C)C1OC(N)=O)C2=O (configuration not stated) | -2.7% | 16 | . | 20% | -18% | 1.3 |
| Cc1cc(C(=O)CSc2nnc(-c3ccco3)o2)c(C)n1C | . | -17 | . | -4%[15.4 µM] | -5% | 0.5 |
| O=C(NCc1ccccc1Cl)c1ccc2c(c1)N(Cc1ccccc1)CCS2 | 4.1% | 5 | . | . | . | 0.9 |
| CCCc1cc(=O)oc2c(C)c(OCC(=O)N3CCC[C@@H]3C(=O)O)ccc12 | 4.5% | . | 1.3 | . | 11% | . |
| O=C(O)COc1ccc(/C=N/NC(=O)COc2nsnc2N2CCOCC2)cc1 | -0.5% | -12 | 7.1 | 20% | 11% | 3.1 |
| COc1ccc(NS(=O)(=O)c2ccc(NC(=S)NC(=O)c3cccc(F)c3)cc2)nn1 | ? | 10 | -2.7 | -1% | -23% | -0.6 |
| O=C(CCc1ccccc1Cl)Nc1cc(S(=O)(=O)N2CCOCC2)ccc1N1CCCC1 | . | 26 | . | -2%[15.4 µM] | -11% | 1.8 |
| COc1ccc(NC(=O)C(C)n2nnc3sc(-c4ccccc4)cc3c2=O)cc1Cl (configuration not stated) | 3.1% | 2 | . | . | . | 1.6 |
| CCNC(=O)CC(=O)Nc1ccccc1C(=O)O | -16% | 7 | 3.9 | -3% | 7% | -0.4 |
| Cc1cc(CN2CCN(c3ccccc3F)CC2)cs1 | 1.0% | 10 | . | . | . | 3.7 |
| O=C(COC(=O)CCc1nc2ccccc2c(=O)[nH]1)Nc1ccc2c(c1)OCO2 | 0.3% | 1 | 6.3 | -19% | 5% | -0.7 |
| O=C1CC(C(=O)Nc2ccccc2)S/C(=N\N=C\c2ccco2)N1 (configuration not stated) | 0.0% | 31 | 1.4 | 8%[15.4 µM] | -18% | 0.4 |
| CCC1(c2ccccc2)NC(=O)N(CC(=O)Nc2ccc(OC)nc2)C1=O (configuration not stated) | -12% | 19 | . | 2%[15.4 µM] | 7% | 16 |
| CCOc1ccc(NC(=O)CN2C(=O)COc3ccc(S(=O)(=O)N4CCCC4)cc32)cc1 | 1.8% | 26 | . | 46% | -32% | -1.0 |
| COC(=O)[C@]1(C)CCC[C@@]2(C)C3CC[C@@]4(C)C[C@]3(CCC21)CC(=O)N4Cc1ccc(OC)cc1 (some centres not stated) | 0.5% | 85 | . | . | ? | 0.1 |
| O=C(Nc1ccc(F)cc1F)c1cc2c(=O)n3ccccc3nc2s1 | 3.7% | -8 | . | . | . | 1.0 |
| CCS(=O)(=O)Nc1cccc(C2=NN(S(=O)(=O)c3ccc(C)cc3)C(c3ccco3)C2)c1 (configuration not stated) | -0.1% | 3 | 0.8 | 1% | -27% | 0.9 |
| COc1ccccc1/C=N/NC(=O)c1ccc(C)nc1 | -5.6% | -4 | -1.0 | -36%[inhibitor] | -4% | -0.8 |
| COc1cccc(NC(=O)CSc2nnc(Cn3c(=O)sc4ccccc43)n2C)c1 | 1.0% | -20 | 1.6 | -73%[inhibitor] | 3% | 1.3 |
| O=C(N/N=C/c1ccccc1C(=O)O)c1cc(-c2ccc3c4c(cccc24)CC3)n[nH]1 | . | -12 | 1.6 | 2%[15.4 µM] | -14% | -0.5 |
| Cc1ccc(C)c(S(=O)(=O)NCCCc2ccccc2)c1 | . | -17 | -2.1 | -11%[15.4 µM] | -2% | 3.0 |
| Cc1sc2nc(CSc3ncn[nH]3)[nH]c(=O)c2c1C | . | 9 | 6.0 | 2%[15.4 µM] | . | 0.1 |
| O=C(Nc1ccccc1)N(C1=NCCC1)c1ccccc1 | 0.0% | -2 | -1.5 | -7%[15.4 µM] | -9% | 0.3 |
| O=c1[nH]c2cc(Cl)ccc2n(CCNc2ncc(C(F)(F)F)cc2Cl)c1=O | -14% | 7 | 4.9 | -13% | 6% | 1.2 |
| N#CCc1ccc(NS(=O)(=O)c2ccc(C3CCCCC3)cc2)cc1 | -0.9% | 1 | 4.5 | 9%[15.4 µM] | 4% | 0.4 |
| CC(=O)c1cc(C#N)c(SCC(=O)Nc2nccs2)nc1C | 0.6% | -3 | -2.6 | ? | ? | 0.4 |
| CCCCNC(=O)C(Sc1ccccc1)c1ccccc1 (configuration not stated) | -1.6% | -3 | 1.5 | 27% | 1% | 2.2 |
| O=C(COc1ccccc1)N/N=C/c1sc(=O)n(Cc2cccc(C(=O)O)c2)c1Cl | . | 1 | ? | -5%[15.4 µM] | -6% | 0.2 |
| COc1ccccc1N1CCN(C(=O)c2ccc(-c3ccc(Cl)cc3)o2)CC1 | -5.3% | 6 | . | 10% | -3% | 1.6 |
| Cc1ccc(CN2CCc3nc(Nc4ccc5c(c4)OCCO5)ncc3C2)cc1 | -2.5% | -14 | . | . | . | 1.6 |
| CCOC(=O)c1ccc2c(c1)n(CC)c(C)[n+]2CC | . | 0 | -6.5 | -9%[15.4 µM] | . | -0.1 |
| CCCc1[nH]nc2c1C1(C(=O)N(CC)c3ccccc31)C(C#N)=C(N)O2 (configuration not stated) | -1.5% | -4 | 1.5 | 40% | -8% | 0.6 |
| Cc1ccc(C(=O)N2C3=C(CCCC3)C(=O)NC23CCCCC3)cc1 | . | -3 | 0.1 | 16%[15.4 µM] | . | 0.4 |
| NC(=O)c1nsc(C(=O)N(CC(=O)NC2CCCC2)Cc2ccc3c(c2)OCO3)c1N | ? | -14 | 5.7 | 3% | 2% | -0.7&-0.4 |
| Cc1c(C(=O)NCCn2ccc3ccccc32)cccc1[N+](=O)[O-] | 0.0% | 4 | 2.8 | -40%[inhibitor] | 4% | -0.2 |
| Cc1nnc(SC(C)C(=O)Nc2ccc(Cl)cc2Cl)[nH]c1=O (configuration not stated) | -2.3% | -5 | . | -1% | -7% | 1.9 |
| Cc1cccc(-c2c3c(=O)n(C)c(=O)n(C)c3cn2C2CCCCC2)c1 | -17% | 21 | -1.2 | 11% | 1% | 1.9 |
| COc1ccc(-c2cc(C(=O)NC(C)c3ccccc3)c3cc(C(C)C)ccc3n2)cc1 (configuration not stated) | ? | 5 | . | . | . | -0.8 |
| COc1ccc(C(=O)Nc2nnc(C3=COCCO3)o2)cc1OC | 1.6% | 2 | . | -13%[15.4 µM] | -15% | -0.5 |
| CC(C)Cn1nc(C(=O)OCC(=O)NCC(F)(F)F)c2ccccc2c1=O | 0.1% | 9 | 2.2 | ? | -1% | 2.0 |
| C[C@@H]1NC(=O)[C@@]2(C)[C@@H](c3ccccc3)[C@H]3COc4ccccc4[C@@H]3N2C1=O | 1.2% | -18 | . | -16% | 5% | -0.4 |
| Cc1ccc(NC(=O)CSc2nc3ccccc3nc2Cc2ccccc2)c(Cl)c1 | -0.4% | 7 | . | . | . | 0.8 |
| CCC(C)C(=O)Nc1nnc(CCc2ccccc2)s1 (configuration not stated) | 0.6% | -12 | 3.2 | -5%[15.4 µM] | 6% | 0.7 |
| O=C(CCc1ccccc1)NNC(=O)COc1ccccc1Cl | . | -3 | -6.6 | -6% | 6% | 0.7 |
| O=[N+]([O-])c1cc(S(=O)(=O)N2CCCC2)ccc1OCc1ccccc1 | . | 51 | 0.9 | -16%[15.4 µM] | -2% | 0.6 |
| COc1ccccc1NS(=O)(=O)c1cc(N)ccc1N1CCOCC1 | 1.9% | 10 | . | 2%[15.4 µM] | 12% | 0.1 |
| Cc1ccc2[nH]c(=O)c(C(c3nnnn3C3CCCC3)N(Cc3cccnc3)Cc3ccco3)cc2c1 (configuration not stated) | -6.9% | 9 | 0.7 | 0% | -12%[15.4 µM] | 2.1 |
| CCN1CCN(CCCNC(=O)CS(=O)(=O)Cc2nc(-c3ccccc3C)oc2C)CC1 | -1.9%&-7.0% | 11&2 | -4.5 | 10% | 17% | -0.8&-0.7 |
| COC(=O)Oc1cncc(C(=O)O)c1 | -1.1% | 0 | 1.4 | 21% | 4% | -0.3 |
| CCc1ccc(C2=C(C)C(N3CCC(C(=O)NCCc4ccco4)CC3)=NS2(=O)=O)cc1 | 0.7% | -23 | . | . | . | 1.4 |

Taken from above for reference:
| compound | ClpP mod | TRPML1 blocker | Menin-MLL FL inh | gsp ag | gsp antagonist | TRPML1 ag |
| --- | --- | --- | --- | --- | --- | --- |
| CC(C)Cn1nc(C(=O)OCC(=O)NCC(F)(F)F)c2ccccc2c1=O | 0.1% | 9 | 2.2 | ? | -1% | 2.0 |
| C[C@@H]1NC(=O)[C@@]2(C)[C@@H](c3ccccc3)[C@H]3COc4ccccc4[C@@H]3N2C1=O | 1.2% | -18 | . | -16% | 5% | -0.4 |
| Cc1ccc(NC(=O)CSc2nc3ccccc3nc2Cc2ccccc2)c(Cl)c1 | -0.4% | 7 | . | . | . | 0.8 |
| CCC(C)C(=O)Nc1nnc(CCc2ccccc2)s1 (configuration not stated) | 0.6% | -12 | 3.2 | -5%[15.4 µM] | 6% | 0.7 |
| O=C(CCc1ccccc1)NNC(=O)COc1ccccc1Cl | . | -3 | -6.6 | -6% | 6% | 0.7 |
| O=[N+]([O-])c1cc(S(=O)(=O)N2CCCC2)ccc1OCc1ccccc1 | . | 51 | 0.9 | -16%[15.4 µM] | -2% | 0.6 |
| COc1ccccc1NS(=O)(=O)c1cc(N)ccc1N1CCOCC1 | 1.9% | 10 | . | 2%[15.4 µM] | 12% | 0.1 |
| Cc1ccc2[nH]c(=O)c(C(c3nnnn3C3CCCC3)N(Cc3cccnc3)Cc3ccco3)cc2c1 (configuration not stated) | -6.9% | 9 | 0.7 | 0% | -12%[15.4 µM] | 2.1 |
| CCN1CCN(CCCNC(=O)CS(=O)(=O)Cc2nc(-c3ccccc3C)oc2C)CC1 | -1.9%&-7.0% | 11&2 | -4.5 | 10% | 17% | -0.8&-0.7 |
| COC(=O)Oc1cncc(C(=O)O)c1 | -1.1% | 0 | 1.4 | 21% | 4% | -0.3 |
| CCc1ccc(C2=C(C)C(N3CCC(C(=O)NCCc4ccco4)CC3)=NS2(=O)=O)cc1 | 0.7% | -23 | . | . | . | 1.4 |

Bioassay records from PubChem.
